# Source: PubChem (several laboratories)
# PKD1 kinase inh = blocks activity of human protein kinase D1; AID 797; 200,000 compounds, 0.056% hits; PKD1 kinase fluorescence polarization assay; inhibition, %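 (about 10 µM by stock and volumes)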;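 active means inhibition of 50% or more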;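 further: controls were vehicle for no effect and a reference inhibitor for full effect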
# GALR2 agonist = agonists of human galanin receptor 2 (GALR2); activation, %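 (tested at 5 µM)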; O43603; 140,000 compounds, 0.48% hits; AID 803; GALR2-expressing cells, agonist activation read-out;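 active means above mean plus 3 SD of all compounds, about 5% in these data, not always enough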;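 further: 0% = vehicle buffer wells and 100% = reference agonist at full effect; tested in CHO reporter cells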
# Target sequence (O43603 whole entry, looked up): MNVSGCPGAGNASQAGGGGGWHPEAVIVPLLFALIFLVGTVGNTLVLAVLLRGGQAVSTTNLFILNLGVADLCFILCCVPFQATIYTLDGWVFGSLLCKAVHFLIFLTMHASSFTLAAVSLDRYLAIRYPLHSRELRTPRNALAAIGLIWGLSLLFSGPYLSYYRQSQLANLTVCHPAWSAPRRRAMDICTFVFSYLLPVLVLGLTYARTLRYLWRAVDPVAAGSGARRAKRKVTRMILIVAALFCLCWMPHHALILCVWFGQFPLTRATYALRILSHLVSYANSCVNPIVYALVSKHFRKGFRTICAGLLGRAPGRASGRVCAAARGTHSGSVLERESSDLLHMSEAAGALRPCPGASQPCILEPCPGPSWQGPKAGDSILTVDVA
# HSV replic up = HSV replication enhancement. HSV replication augmentation in cells, fold increase. 220,000 compounds, 0.005% hits. AID 1956. maximum fold increase;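 active means peak rise of 1.5-fold or more in the series; tested in PC3 cells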;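 further: first round at 10 µM; read as green reporter fluorescence; hits show the peak of a series up to 25 µM; 1 = signal of infected wells without compound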
# RGS16-Gao HTS = RGS16-Galphao interaction regulator (human) | O15492+P09471 | bead-based flow cytometry RGS16-Galphao binding, fluorescence; actives lie on both sides | binding response (% of control), % at 10 µM | 220,000 compounds, 0.38% hits | AID 1441;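 active means below 25% or above 175%, edge rows of some plates excepted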;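 further: Galphao activated by GDP with aluminum fluoride before binding; 100% = wells without compound and 0% = beads without RGS; some results beyond the cut were filed as inactive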
# Target sequence (O15492 whole entry, looked up): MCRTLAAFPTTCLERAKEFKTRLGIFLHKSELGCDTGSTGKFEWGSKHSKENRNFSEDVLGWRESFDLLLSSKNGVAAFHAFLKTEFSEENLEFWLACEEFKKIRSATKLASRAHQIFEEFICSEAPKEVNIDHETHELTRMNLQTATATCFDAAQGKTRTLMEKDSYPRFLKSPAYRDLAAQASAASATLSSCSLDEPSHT
# Target sequence (P09471 whole entry, looked up): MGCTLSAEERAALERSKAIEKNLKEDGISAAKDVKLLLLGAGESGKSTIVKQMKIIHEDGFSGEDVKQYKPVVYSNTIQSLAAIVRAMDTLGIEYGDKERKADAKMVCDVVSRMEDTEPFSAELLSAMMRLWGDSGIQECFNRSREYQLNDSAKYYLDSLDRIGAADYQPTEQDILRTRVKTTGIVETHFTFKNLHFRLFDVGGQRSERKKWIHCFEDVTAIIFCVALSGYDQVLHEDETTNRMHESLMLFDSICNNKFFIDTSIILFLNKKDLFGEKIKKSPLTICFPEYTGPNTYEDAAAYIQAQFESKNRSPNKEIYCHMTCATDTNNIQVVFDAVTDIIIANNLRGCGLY
# Insulin prom inh = TRM-6 insulin promoter activity inhibition | TRM-6 cells (human fetal islet line), insulin promoter-eGFP reporter, imaging; reporter expression induced with tamoxifen | inhibition, % at 2 µM | 130,000 compounds, 0.9% hits | AID 1273;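 active means inhibition above the mean plus 3 SD, with well images judged a real hit on visual review, cut at about 60% in these data, passing the limit was not always enough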
# Insulin prom inh cell count = also measured in Insulin prom inh; calls as there; normalized cell count, %; measured here: cell count, toxicity; reference of the scale not given here;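 cells exposed to compound for 48 h; stained nuclei by imaging scaled within each plate; lower means fewer cells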
# HSV replic up primary fold = also measured in HSV replic up; calls as there; fold increase; compound at 10 µM; measured here: primary screen fold increase 10 uM; tested in PC3 cells;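 GFP signal in the first replicate; 1 = infected wells without compound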
# Active calls of the source: *; i = inactive; · = no result given.
SMILES,PKD1 kinase inh,GALR2 agonist,HSV replic up,HSV replic up primary fold,RGS16-Gao HTS,Insulin prom inh,Insulin prom inh cell count
COc1ccc(NC(=O)CC(C(=O)O)N2CCCCC2)cc1 (stereo not drawn),-10,0.3,·,·,105,25,76
Cc1ccc(NS(=O)(=O)c2ccc(N3C(=O)CCC3=O)cc2)cc1,-4,-0.7,i,0.89,103,31,106
O=C(NCc1ccco1)c1ccc(OCC2CCCO2)cc1 (stereo not drawn),2,-1.3,i,0.94,88,0,182
O=C(Nc1ccc2oc(-c3cccnc3)nc2c1)c1cccnc1,1,0.8,i,0.77,103,·,·
COc1ccc(/C=C/C(=O)OCC(=O)NCc2cccs2)cc1OC,-1,0.1,i,0.97,104,0,74
N/C(=N\OC(=O)CCCc1ccccc1)c1ccccn1,-8,1.1,·,·,113,50,134
COC(=O)c1cn(-c2ccc(Cl)cc2)c(=O)c2ccccc12,-2,0.9,i,0.89,102,36,38
CCc1cc2c(=O)c(-c3nc4ccccc4[nH]3)coc2cc1OC(=O)N1CCOCC1,-4,0.2,i,0.94,100,·,·
O=C(CC12CC3CC(CC(C3)C1)C2)N1CCOCC1,5,-2.1,i,0.88,102,28,131
O=C(O)Cn1nc(C(F)(F)F)c2c1CCCC2,0,·,i,1,96,7,143
COc1cccc(CN2CCNC(=O)C2CC(=O)NCCn2nc(C)cc2C)c1OC (stereo not drawn),·,·,i,1,101,·,·
Fc1ccc(OCc2nn3cnnc3s2)cc1,-7,-1.6,i,0.98,104,-6,130
CCN(CC)CCCN1C=C2C(=O)C(C)(OC(=O)C3CCCC3)C(=O)C(c3ccccc3)=C2C=C1CCCC(=O)OC (stereo not drawn),·,·,i,0.87,102,·,·
Cc1c(NS(=O)(=O)c2cccc(C(=O)OCC(=O)N(C)C3CCCCC3)c2)c(=O)n(-c2ccccc2)n1C,-5,·,i,0.92,104,29,88
Cc1ccc(CNC(=O)C2CCN(S(=O)(=O)N3CCCCC3)CC2)cc1,-3,·,i,0.94,57,-25,86

# As a working copy, some entries already given.
SMILES,PKD1 kinase inh,GALR2 agonist,HSV replic up,HSV replic up primary fold,RGS16-Gao HTS,Insulin prom inh,Insulin prom inh cell count
O=C(CC12CC3CC(CC(C3)C1)C2)N1CCOCC1,5,-2.1,i,0.88,102,28,131
O=C(O)Cn1nc(C(F)(F)F)c2c1CCCC2,0,·,i,1,96,7,143
COc1cccc(CN2CCNC(=O)C2CC(=O)NCCn2nc(C)cc2C)c1OC (stereo not drawn),·,·,i,1,101,·,·
Fc1ccc(OCc2nn3cnnc3s2)cc1,-7,-1.6,i,0.98,104,-6,130
CCN(CC)CCCN1C=C2C(=O)C(C)(OC(=O)C3CCCC3)C(=O)C(c3ccccc3)=C2C=C1CCCC(=O)OC (stereo not drawn),·,·,i,0.87,102,·,·
Cc1c(NS(=O)(=O)c2cccc(C(=O)OCC(=O)N(C)C3CCCCC3)c2)c(=O)n(-c2ccccc2)n1C,-5,·,i,0.92,104,29,88
Cc1ccc(CNC(=O)C2CCN(S(=O)(=O)N3CCCCC3)CC2)cc1,-3,·,i,0.94,57,-25,86

# Remaining list, next part
SMILES,PKD1 kinase inh,GALR2 agonist,HSV replic up,HSV replic up primary fold,RGS16-Gao HTS,Insulin prom inh,Insulin prom inh cell count
Cn1c(CNC(=O)OC(C)(C)C)nnc1SCc1c(Cl)cccc1Cl,·,·,i,0.93,101,·,·
CNC(=O)C(=O)NCCCN1CCOCC1,-6,·,i,1,101,-12,149
Cc1ccc2c(c1)cc(CN(CCc1ccccc1)C(=O)N1CCOCC1)c1nnnn12,-19,-0.8,i,0.89,88,·,·
Cc1nn(CC(=O)N/N=C/c2ccc(F)cc2)c(C)c1[N+](=O)[O-],·,·,i,0.91,103,·,·
Cc1ccc(C)c(N2CCN(C(=O)c3ccc(CS(=O)(=O)c4ccccc4C)o3)CC2)c1,5,-1.2,i,0.67,105,-68,112
CC(NC(=S)Nc1ccc(OC(F)F)c(Cl)c1)C(C)(C)C (stereo not drawn),-5,·,i,0.82,97,·,·
Cc1ccc2nc(SCc3nnc(-c4ccccc4[N+](=O)[O-])o3)c(C#N)cc2c1,-2,0.1,i,0.88,99,·,·
C/C(=N\NC(=O)c1cccc(S(=O)(=O)N2CCOCC2)c1)c1ccco1,·,·,i,0.95,92,·,·
CCCn1c(SCC(=O)c2ccc3c(c2)OCCO3)n[nH]c1=O,-4,·,i,0.87,100,-20,143
COc1ccc(CN(C)C(=O)c2cnc(OC)cc2C(F)(F)F)c(OC)c1,·,·,i,1,97,·,·
Cc1ccccc1C(=O)Nc1ccc(Br)cn1,-4,-0.3,i,0.97,101,·,·
Cc1ccc(-n2c(=O)c3sccc3n(Cc3cc(=O)n4ccccc4n3)c2=O)cc1F,-10,-0.3,i,0.91,109,3,136
COc1ccc(-c2c(C(F)(F)F)[nH]n3c(=O)cc(-c4ccccc4)nc23)cc1,·,·,i,1.1,100,·,·
CCOc1ccc(NS(=O)(=O)c2cnc(Cl)c(Cl)c2)cc1,-14,-0.2,i,0.94,101,-71,95
Cn1c(C(=O)NC2CCCCC2)cc2sccc21,11,0.0,i,1.2,110,·,·

# Rewritten as tab-separated lines: 2 of the compounds above.
compound	PKD1 kinase inh	GALR2 agonist	HSV replic up	HSV replic up primary fold	RGS16-Gao HTS	Insulin prom inh	Insulin prom inh cell count
CCc1cc2c(=O)c(-c3nc4ccccc4[nH]3)coc2cc1OC(=O)N1CCOCC1	-4	0.2	i	0.94	100	·	·
O=C(CC12CC3CC(CC(C3)C1)C2)N1CCOCC1	5	-2.1	i	0.88	102	28	131

# More compounds
SMILES,PKD1 kinase inh,GALR2 agonist,HSV replic up,HSV replic up primary fold,RGS16-Gao HTS,Insulin prom inh,Insulin prom inh cell count
Cc1cccc(NC(=O)c2ccc3ccccc3n2)n1,3,-1.6,i,0.85,87,44,77
CN(C)S(=O)(=O)Oc1ccc(Cl)cc1C(=O)Nc1cccc(C(F)(F)F)c1,-2,0.6,i,0.96,99,-23,126
COc1ccc(Nc2nc(NCc3ccco3)nc(N/N=C/c3ccccc3Cl)n2)cc1,8,-1.4,i,0.94,92,21,97
Cc1ccc(S(=O)(=O)N2CCC(=O)N(CCOCc3ccc(Cl)cc3)CC2)cc1,14,-0.8,i,0.88,99,5,95
C=CCc1ccccc1OCC(=O)O,·,·,i,0.87,97,·,·
O=C(N/N=C/c1ccc(Br)s1)Nc1ccccc1,-1,·,i,0.7,100,-38,172
O=C(N/N=C/c1cccc([N+](=O)[O-])c1O)c1cccs1,6,-1.3,i,0.91,62,·,·
O=C(CN(C(=O)Cn1nnc(-c2cccs2)n1)c1ccc2c(c1)OCCO2)NC1CCCCC1,6,-1.0,i,0.98,97,-14,70
S=C(Nc1cccnc1)Nc1cccc2cnccc12,0,·,i,0.82,96,·,·
Cc1ccc(NC2=C(Cl)C(=O)N(C3CCCCC3)C2=O)cc1,-2,-0.6,i,0.97,36,21,100
Oc1cccc2ccc(/C=C/c3ccc(Br)s3)nc12,-4,·,i,0.62,105,20,113
Nc1cc(N)nc(SCC(=O)c2ccccc2)n1,4,-2.7,i,0.84,105,27,119
Cc1csc(SCC(=O)c2cc(C)n(Cc3cccs3)c2C)n1,5,-0.5,i,0.9,101,3,77
Cc1ccccc1NC(=O)C1C2/C=C\CCCCC21 (stereo not drawn),-1,1.1,i,0.8,104,·,·
C=CCN=C1SC(CC)C(=O)N1S(=O)(=O)c1ccc(C)cc1 (stereo not drawn),-7,-1.9,i,0.99,109,-9,118
CCOc1ccc(-c2nc(-c3ccc(OC)c(OC)c3)no2)cc1OCC,2,-2.6,i,1,103,-300,25
CCN1CCN(C(c2cccs2)C(C)NC(=O)NC2CCCCC2)CC1 (stereo not drawn),-6,-1.9,i,0.73,101,·,·
COCCCNc1nc2ccccc2nc1NS(=O)(=O)c1ccc(C)cc1C,·,·,i,1.1,104,·,·
O=C(NC(=S)N1CCN(c2ccccc2)CC1)c1ccc(S(=O)(=O)N2CCOCC2)cc1,·,·,i,1.1,106,·,·
C=C(C)c1cccc(C(C)(C)NC(=O)N2CCCCC2CC)c1 (stereo not drawn),-3,-0.5,i,0.98,404,-35,154
O=C(NC(C(=O)N/N=C/c1ccccc1)c1n[nH]c(=O)c2ccccc12)c1ccccc1 (stereo not drawn),-6,-1.3,·,·,104,2,117
CCCn1cnc2scc(-c3ccc(C)cc3)c2c1=O,0,·,i,0.97,102,43,126
O=C(CCSc1ccccc1)N1CCN(c2ccccc2)CC1,-2,·,i,0.88,111,-30,207
COC(=O)c1sc(-c2ccc(Cl)cc2)cc1N,·,·,i,0.87,100,·,·
COc1ccccc1CNCC(=O)NCc1ccc(C)cc1,1,·,i,0.9,99,·,·
O=C(NC1CCN(C(=O)NCc2ccccc2)CC1)c1ccco1,-6,-1.8,i,0.77,102,9,83
COc1cccc(-c2nnn(CC(=O)Nc3ccc(C)cc3C)n2)c1OC,-10,-1.1,i,0.85,114,16,152
CC(C)(C)c1ccc(S(=O)(=O)N2CC(=O)Nc3ccccc32)cc1,1,-1.0,i,0.73,113,42,136
Cn1c(=O)n(C)c2cc(S(=O)(=O)NCCO)ccc21,2,-1.8,i,0.92,96,20,76
Cc1c(C(=O)NNS(=O)(=O)c2ccccc2Cl)sc(=S)n1C,-3,-0.5,i,0.97,86,-67,111
Cc1cc2c(Nc3ccccc3)ncnc2s1,-6,·,i,0.98,101,·,·
Cc1ccccc1-n1cnc2c(sc3nc(N4CCOCC4)c4c(c32)CCCC4)c1=O,·,·,i,0.94,101,·,·
CCC1CCCCN1c1nc(-c2ccncc2)nc2ccccc12 (stereo not drawn),0,0.0,i,0.88,102,-46,96
CCOC(=O)C(CC(=O)O)NCc1ccco1 (stereo not drawn),·,·,i,0.96,99,·,·
CCCCn1nc(NC(=O)c2cccs2)c2cc3ccccc3nc21,-8,11,i,0.77,75,·,·
CCCn1c(=S)[nH]c2cc(C(=O)N3CCCC(C(=O)OCC)C3)ccc2c1=O (stereo not drawn),3,-3.4,i,1.1,116,-100,132
Cc1cc2c(cc1C)N(C(=O)CSC1=NCCS1)C(C)(C)c1ssc(=S)c1-2,4,-4.0,i,1.2,89,8,106
COc1cccc2cc(C(=O)N3C(C)CCCC3C)c(=O)oc12 (stereo not drawn),-4,-0.5,i,0.9,109,40,104
Cc1cc(C2=NNC(=Nc3ccccc3)SC2)c(C)n1C,-9,·,·,·,89,50,207
CC(=O)N(c1ccc(Cl)cc1)c1cn(C(C)=O)c2ccccc12,3,·,i,1.1,95,-426,118
Cn1cc(/C=C/C(=O)N2CCCC(C(=O)c3cccc(C(F)(F)F)c3)C2)cn1 (stereo not drawn),2,·,i,0.97,101,·,·
O=C(NCc1ccco1)C1CCN(S(=O)(=O)c2cccc3cccnc23)CC1,-12,·,i,0.9,118,·,·
CCNS(=O)(=O)c1cc(OC)c(Cl)cc1OC,9,-0.4,i,1,107,29,115
CN(Cc1cccs1)C(=O)CSc1nc2ccccc2[nH]1,-9,·,i,0.96,104,-50,140
O=C(Nc1ccc2c(c1)OCO2)C1CCCN1C(=O)OCc1ccccc1 (stereo not drawn),3,-2.9,i,0.95,110,-33,70
C=CCn1c(=O)c2ccc(C(=O)NCc3ccccc3)cc2n(Cc2ccc(C)cc2)c1=O,-9,1.0,·,·,96,20,76
Cc1ccc(NC(=O)c2ccc(S(=O)(=O)NCC3CCCO3)cc2)cc1C (stereo not drawn),-4,·,i,1,112,·,·
CCn1c(N2CCN(CC(=O)c3c(C)n(C)c4ccc(OC)cc34)CC2)nc2c1c(=O)[nH]c(=O)n2C,·,·,i,0.87,102,·,·
COC(=O)N/N=C/c1ccccc1OCCOc1ccc(OC)cc1,·,·,i,0.86,98,·,·
Nc1c(C(=O)O)cnc2c(-c3ccc(Cl)cc3)cnn12,4,·,i,0.86,94,-247,94
COC(=O)C1=C(CSc2nc3c(cc2C#N)CN(C)CC3)OC(N)=C(C#N)C1c1ccc(F)cc1 (stereo not drawn),5,-1.2,i,1.1,96,20,134
COc1ccc(NC(=O)[C@@H]2[C@@H]3C(=O)N(C4CCCCC4)C(=O)[C@@H]3C3c4ccccc4C=CN32)cc1 (stereo partly drawn),-7,-1.2,i,0.98,98,·,·
COc1ccc2[nH]c(=O)c(CN(CCc3cccc(C)c3)C(C)=O)cc2c1,-6,-1.1,i,0.87,102,11,120
O=C(CN1C(=O)c2ccccc2C1=O)N1CCOCC1,-13,0.3,i,0.89,98,27,107
COc1ccc(CN2CCN(CCCCOc3ccc(Cl)cc3)CC2)c(OC)c1OC,-6,·,i,0.89,98,·,·
Cc1cc2n(n1)C(c1c[nH]c3ccccc13)Nc1ccccc1-2 (stereo not drawn),-3,-0.5,i,0.72,96,-36,80
